High-throughput results from PubChem BioAssay.
E coli growth – inhibitors of Escherichia coli growth. OD600, 23 h; stronger effect = lower value. OD600 absorbance (no concentration beside the values). hit rate 0.21% among 330,000. AID 1053175;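 active = OD600 absorbance below the run mean of sample wells minus 3.6 SD, in any replicate, cut at about 0.56 in these data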;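 note: stock transfer was 300 nL into about 60 µL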
Ecoli rRNA inh – inhibitors of bacterial rRNA selective over humanized ribosomes; E. coli WT GFP vs humanized-ribosome RFP mutants, fluorescence, 24 h; stronger effect = lower value; DMSO median 0, no signal -100; GFP signal change (wild-type ribosome), % (no concentration beside the values); hit rate 1.6% among 350,000;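 active = significant combined selectivity score with lowered wild-type GFP, culture density cut under 30%, mutant RFP and density less affected; inactive = any of these conditions unmet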; note: one replicate is shown; some compounds called inactive have numbers as strong as hits
A1 inh – inhibitors of the anti-apoptotic protein A1, read as caspase activation | MEF A1-2A-BIM cells, Caspase-Glo 3/7 luminescence, 3 h; percent of clofoctol response, vehicle zero | caspase activation, % (test concentration not listed) | hit rate 0.066% among 330,000 | AID 2462;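 active = over half of replicate activation scores above 10%, or exactly half above 10 with the replicate mean above 10; inconclusive = replicate mean below 10 yet half the replicates above 10; inactive = over half of replicates below 10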;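 note: wells of about 30 µL received 50 nL stock; many hits fall short of the cut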
AF4-AF9 inh – MLL-AF4/AF9 protein interaction inhibition | P42568 | AlphaScreen, biotin-AF4 peptide binding to FLAG-AF9 | inhibition, % at 10 µM | hit rate 0.47% among 350,000 | AID 651704;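 active = every replicate reaching a set inhibition limit, whatever the replicate mean, cut at about 25% in these data; inconclusive = mean inhibition reaches that limit but some replicates miss it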;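 note: 0% = plate neutral control median and 100% = total signal loss; the record names both 10 and 1 µM as test concentration; the first replicate is given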
Target sequence (P42568 whole entry, looked up): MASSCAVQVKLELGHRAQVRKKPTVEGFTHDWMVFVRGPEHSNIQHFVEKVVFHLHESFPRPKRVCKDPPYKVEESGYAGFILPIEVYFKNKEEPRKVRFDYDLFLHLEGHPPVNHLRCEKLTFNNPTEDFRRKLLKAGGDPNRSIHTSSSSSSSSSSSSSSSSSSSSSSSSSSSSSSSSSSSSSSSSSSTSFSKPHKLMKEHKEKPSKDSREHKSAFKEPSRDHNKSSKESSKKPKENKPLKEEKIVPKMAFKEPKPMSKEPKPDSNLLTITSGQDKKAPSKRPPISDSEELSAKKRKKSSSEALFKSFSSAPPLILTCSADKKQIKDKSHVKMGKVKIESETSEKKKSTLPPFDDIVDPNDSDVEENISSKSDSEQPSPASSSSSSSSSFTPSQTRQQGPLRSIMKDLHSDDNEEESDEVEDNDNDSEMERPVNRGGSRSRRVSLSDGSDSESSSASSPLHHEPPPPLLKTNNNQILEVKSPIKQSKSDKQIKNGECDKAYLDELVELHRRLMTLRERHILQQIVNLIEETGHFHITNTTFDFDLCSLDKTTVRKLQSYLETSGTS
UCH37 inh – inhibitors of human deubiquitinating enzyme UCH37; Q9Y5K5; purified proteasome/UCH37, Ub-AMC cleavage fluorescence; inhibition, % (concentration not given with the values); hit rate 0.33% among 330,000; AID 588478;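 active = mean of two replicates above 20%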;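 note: 0% = compound-free wells with enzyme and 100% = wells lacking proteasome; stock transfer was 100 nL into about 20 µL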
Target sequence (Q9Y5K5 whole entry, looked up): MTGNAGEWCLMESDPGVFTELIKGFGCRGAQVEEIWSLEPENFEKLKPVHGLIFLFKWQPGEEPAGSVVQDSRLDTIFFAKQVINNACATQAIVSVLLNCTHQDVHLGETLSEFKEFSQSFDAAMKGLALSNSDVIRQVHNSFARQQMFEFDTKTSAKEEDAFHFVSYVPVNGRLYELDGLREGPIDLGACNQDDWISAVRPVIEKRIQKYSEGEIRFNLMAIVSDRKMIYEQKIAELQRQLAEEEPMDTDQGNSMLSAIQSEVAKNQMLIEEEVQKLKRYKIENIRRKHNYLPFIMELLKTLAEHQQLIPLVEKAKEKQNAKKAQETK
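System: Proteasome-associated human UCH37 deubiquitinase; Input: 0.15 nM proteasome in added enzyme buffer; Also added: Ub-AMC substrate from 1 µM stock; Incubation: 30 min compound-proteasome preincubation then 25 min substrate reaction, room temperature; Detection: fluorescence, ex 355 nm, em 460 nm; Read-out: % inhibition of Ub-AMC cleavage fluorescence; Benchmarks: no-proteasome and no-compound wells.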
FGF22 binding – binders of recombinant human FGF22 by thermal shift. SYPRO orange fluorescence; percent of sucrose octasulfate shift, DMSO zero. AID 651658. Q9HCT0. calls only at 9.99 µM. hit rate 1.5% among 340,000;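 active = melting point raised past a set limit in the mean and every replicate; inconclusive = no clear call; three in four hits are not shown here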
Target sequence (Q9HCT0 whole entry, looked up): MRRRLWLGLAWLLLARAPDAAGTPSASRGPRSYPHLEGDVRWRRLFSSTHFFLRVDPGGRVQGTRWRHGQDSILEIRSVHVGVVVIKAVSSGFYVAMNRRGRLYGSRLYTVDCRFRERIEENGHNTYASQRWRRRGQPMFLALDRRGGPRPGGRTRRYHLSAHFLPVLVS
T cruzi repl – T. cruzi replication inhibition. T. cruzi beta-gal in NIH3T3, luminescence, 90 h. inhibition, % (no concentration beside the values). hit rate 1.4% among 300,000. AID 1885;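 active = mean inhibition across valid replicates above about 55%, limit read from the data; inconclusive = mean below that limit but half or more replicates reach it; inactive = mean below it, under half of replicates reach it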;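 note: signal also drops with host cell toxicity which is not excluded here; 0% = plate median of DMSO wells and 100% = zero luminescence signal; higher percent means less beta-gal luminescence so fewer parasites; stock transfer was 50 nL into about 50 µL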
Beta cell apopt – blocks beta cell apoptosis; INS-1E cytokine-induced death, ATP luminescence, 48 h; percent of positive-control rescue, neutral wells zero; protection from apoptosis, % (no concentration beside the values); hit rate 0.8% among 300,000;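 active = all replicates at 75% or more, or half of them and the mean; inconclusive = half reach 75% but not the mean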;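 note: 0% = cytokine-treated negative control wells and 100% = positive control rescue; higher means more ATP so stronger rescue from cytokine killing; wells of about 40 µL received 100 nL stock; the first replicate is given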
Ecoli rRNA inh OD600 – second read-out of Ecoli rRNA inh, no call of its own (marks repeat the call); OD600 change, %; measured here: OD600 growth;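 optical density of the mix in the first replicate; 0 = DMSO median and -100 = no signal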
Ecoli rRNA inh RFP – also measured in Ecoli rRNA inh; calls as there; RFP signal change, %; measured here: RFP humanized mutant strains;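 first replicate; 0 = DMSO median and -100 = no signal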
* marks the source's active call; other numbers are inactive results; i = inactive; ? = inconclusive; . = no result given. A portion of the library. The share of hits here may be higher or lower than overall.

SMILES	E coli growth	Ecoli rRNA inh	Ecoli rRNA inh OD600	Ecoli rRNA inh RFP	A1 inh	AF4-AF9 inh	UCH37 inh	FGF22 binding	T cruzi repl	Beta cell apopt
Cc1ccc(/C(O)=C2/C(=O)C(=O)N(CCCn3ccnc3)C2c2cccnc2)cc1 (centres undefined)	0.69	5	4	-0.8	.	13	5.8	i	.	.
Cc1nn(-c2ccccc2)c2sc(C(=O)NC3CCCCC3)cc12	0.69	.	.	.	-0.2	.	3.7	.	15	6
CCOC(=O)C1=C(CSc2nc3ccccc3s2)NC(=O)NC1c1cc(C)ccc1C (centres undefined)	0.75	.	.	.	0.0	.	2.5	.	?	.
CCNC(=S)/C(=C(/[O-])c1ccc([N+](=O)[O-])cc1)[n+]1ccccc1	0.67	5	3	-0.9	0.1	-6.3	9.2	i	-7	-2
CCOc1ccccc1OCCN1CCC(Cc2ccccc2)CC1	0.64	.	.	.	0.4	.	2.5	.	18	10
COc1ccc(-c2cc(C(=O)OCC(=O)N3CCCCC3)c3ccccc3n2)cc1OC	0.71	-25	-43	-2.8	-12	0.5	-39	i	.	13
Cc1ccccc1S(=O)(=O)Cc1ccc(C(=O)NC2CC2)o1	0.69	16	16	7.7	-0.7	1.5	1.9	i	-16	4
Cc1cc2cc(CNC(=O)c3ccc(S(=O)(=O)N4CCCCC4)cc3)ccc2[nH]1	0.82	-6	3	18	1.1	3.5	0.5	i	9	-2
O=C(COC(=O)Cc1ccc(Cl)cc1)NCc1ccco1	0.68	5	15	-3.6	-0.1	-2.8	0.4	i	.	1
COc1cc(CN(CC2CCCO2)C(=O)c2ccco2)cc(OC)c1OC (centres undefined)	0.68	4	-1	-0.7	-0.1	-1.8	5.2	i	-1	-6
CCOc1ccc(N(Cc2ccc(OC)c(OC)c2)C(=O)c2ccco2)cc1	0.68	-17	-29	-5.5	-1.6	1.8	3.1	.	9	2
CC1CCN(C(=S)c2ccccc2O)CC1	0.69	.	.	.	-0.1	.	4.1	.	4	-15
O=C(O)C(Cc1ccc(F)cc1)c1ccccc1 (centres undefined)	0.61	3	-4	-3.1	0.2	0.2	4.8	i	0	.
CCN(CC)S(=O)(=O)c1ccc(NN=C2CCN(C)CC2)c([N+](=O)[O-])c1	0.67	10	5	-0.7	1.5	6.9	4.8	i	58*	-1
O=C(Nc1nccs1)c1nc[nH]c1C(=O)N1CCc2ccccc2C1	0.7	10	2	21	0.7	-4.4	1.7	i	.	-4
COc1ccc(CCN2C(=O)NC(NC(=O)CC(C)C)(C(F)(F)F)C2=O)cc1OC (centres undefined)	.	.	.	.	-0.5	.	4.6	.	-9	6
Cc1ccc(NS(=O)(=O)c2ccc(C(=O)N3CCCC(C(F)(F)F)C3)cc2)cc1 (centres undefined)	0.71	7	14	-0.1	-1.2	-0.3	0.5	i	3	.
COCC(C)NC(=O)C1CC(=O)N(c2ccc(C)cc2)C1 (centres undefined)	0.69	.	.	.	0.1	.	-2.4	.	-1	-8
COc1ccc(Nc2nc3ccc(C)cn3c(=O)c2/C=N/O)cc1	.	6	0	-7.5	0.5	-1.7	.	i	0	5
CC(=O)NC(CC(=O)Nc1nccs1)c1ccccc1 (centres undefined)	0.7	19	2	1.0	0.5	7.4	1.0	i	-8	-6
CN1CCN(S(=O)C23CC4CC(CC(C4)C2)C3)CC1 (centres undefined)	0.68	.	.	.	-0.6	.	0.0	.	44	-3
COc1ccccc1C1CCN(C(=O)c2ccc(C(C)(C)C)cc2)CC1	0.7	-11	-21	-2.5	0.4	-1.6	5.5	i	11	5
CC(C)C(=O)N1CCN(c2ccc([N+](=O)[O-])cc2Cl)CC1	0.71	2	0	-12	0.1	1.4	7.8	i	2	3
COc1ccc(C2=NS(=O)(=O)N(C)C(C(=O)NC3CCCC3)=C2)cc1	0.77	-8	-3	3.2	-0.4	-4.5	5.9	i	-6	3
CCOc1ccccc1C(=O)N(CN1CCCC1=O)c1cccc(Cl)c1	0.7	.	.	.	0.4	.	6.2	.	-17	-5
c1ccc(Cc2cc[n+](Cc3ccccn3)cc2)cc1	0.68	21	24	1.4	0.1	0.6	5.1	i	1	15
CCN(C(=O)CSc1nnc(C(C)N(C)C)n1-c1ccc(F)cc1)C1CCS(=O)(=O)C1 (centres undefined)	0.64	19	2	1.6	.	1.4	3.0	i	.	.
CCN(CC)CCCNC(=O)C1CCN(C(=O)c2oc3cc4sc(N(C)C)nc4cc3c2C)CC1	0.68	-8	-3	0.7	-0.2	1.4	-42	i	35	-7
COC(=O)c1cc2ccccc2n1Cc1ccc(Cl)nc1	0.64	-14	-3	-1.5	-0.2	-1.8	3.3	i	-1	-4
O=C(NCCCN1CCOCC1)C(Sc1ccccc1)c1ccccc1 (centres undefined)	0.68	.	.	.	-0.2	.	0.0	.	9	-1
O=C(NOCc1ccccc1)c1ccc(Cl)cc1Cl	0.64	.	.	.	-6.2	-2.1	-1.5	i	.	1
CCCn1nc(CC(=O)O)c2ccccc2c1=O	0.7	.	.	.	0.4	.	-0.4	.	0	.
CCCn1c(=S)[nH]c2ccc(C(F)(F)F)cc21	0.7	-39*	-18*	-4.7*	-0.7	-4.7	1.6	i	-9	-2
CCOC(=O)CSc1nc(-c2ccccn2)ncc1OC	0.64	-2	-3	-4.4	1.3	1.0	1.9	i	-2	0
Cc1cc2cc(CCNC(=O)c3cccs3)c(=O)[nH]c2cc1C	0.69	-12	-7	-6.9	-0.4	-4.7	-0.2	i	-4	.
COc1cccc(NC(=O)CN2C(=O)COc3ccc(Cl)cc32)c1	0.76	-9	-12	-3.8	0.2	-1.1	3.4	i	5	-4
Cc1ccc(OCC(=O)NCCCNC(=O)c2ccncc2)cc1C	0.67	6	6	1.8	0.9	0.5	1.2	i	-6	-6
O=[N+]([O-])c1cccc(Cl)c1CSc1ccccn1	0.69	-9	-5	1.1	-0.3	-4.1	0.7	i	-8	-7
COc1cc2c(cc1OC)C(c1ccc(N(C)C)cc1)NCC2 (centres undefined)	0.69	6	6	-2.0	0.6	6.7	5.8	i	3	-4
CC(C)C(NC(=O)c1ccc(F)cc1)C(=O)N1CCN(c2ccccn2)CC1 (centres undefined)	0.67	1	8	2.9	0.9	-1.7	-2.7	i	.	-3
CC(=O)c1ccc(NC(=O)C(=O)c2cn(CC(=O)N3CCCCC3)c3ccccc23)cc1	0.69	8	13	-0.1	0.3	5.4	-0.4	i	10	-4
CCOC(=O)C1=C(CSc2nc3c(cc2C#N)CCC3)OC(N)=C(C#N)C1c1ccccc1 (centres undefined)	0.64	.	.	.	0.1	.	-12	.	10	2
CCn1c(-c2ccc(N)cc2)nc2ccccc21	0.65	-4	-1	-5.2	-0.2	6.0	-26	i	-24	-5
Cc1ccc(NC(=O)CC(NCCN2CCOCC2)C(=O)O)cc1Cl (centres undefined)	0.63	.	.	.	0.2	.	2.1	.	1	-3
CCOC(=O)C1=C(C)NC(=O)CC1c1cc(OC)c(OC)cc1Br (centres undefined)	0.71	-1	-1	-5.7	0.0	-9.2	5.9	i	19	-2
CC(=O)N1CCc2c(sc(NC(=O)C3COc4ccccc4O3)c2C(N)=O)C1 (centres undefined)	0.69	-21	-19	-3.8	-0.3	1.5	-6.1	i	1	5
Cc1ccccc1C(=O)Nc1ccc(-c2nc3ccc(C(=O)c4ccccc4)cc3[nH]2)cc1	0.76	.	.	.	0.2	.	-1.5	.	50	14
O=C(O)c1ccccc1N(Cc1ccccc1)C(=O)COc1ccccc1	0.66	2	4	2.7	-0.2	-1.8	1.0	i	-8	-5
CCNC(=O)c1ccccc1NC(=O)C1CC(=O)N(C(C)C)C1 (centres undefined)	0.67	8	15	-0.4	0.7	0.5	0.7	i	-4	-7
CC(=O)Nc1ccc(S(=O)(=O)c2ccc(C)cc2)cc1	0.64	5	-4	0.3	-0.3	-7.5	0.6	i	3	-1

Following part
SMILES	E coli growth	Ecoli rRNA inh	Ecoli rRNA inh OD600	Ecoli rRNA inh RFP	A1 inh	AF4-AF9 inh	UCH37 inh	FGF22 binding	T cruzi repl	Beta cell apopt
CN(C(=O)c1ccc2c(c1)CCN2S(C)(=O)=O)c1ccccc1	0.67	12	9	2.3	-0.2	-1.0	4.9	i	2	-7
Cc1nc(NC(=O)c2ccc3c(c2)OCCO3)ccc1Br	0.67	-5	-20	0.6	0.4	-0.1	0.0	i	8	-2
O=C(NCc1cccnc1)/C(=C/c1ccco1)NC(=O)c1ccccc1	0.71	.	.	.	-1.0	.	4.8	.	-19	-7
CN(C1(C)CCS(=O)(=O)C1)S(=O)(=O)c1cccc([N+](=O)[O-])c1 (centres undefined)	0.7	13	9	-0.3	-0.1	-0.5	3.8	.	-13	.
COC(=O)/C(=C/c1c[nH]c2ccccc12)NC(C)=O	0.71	6	8	1.9	0.4	-6.3	13	i	-12	4
Cc1ccc(S(=O)(=O)N2CCCC2C(=O)OCc2ccccc2)cc1 (centres undefined)	0.68	-5	-5	3.3	0.2	3.4	3.2	i	4	-14
COc1ccc(NS(=O)(=O)c2ccc(NC(=O)C3CCCO3)cc2)cc1 (centres undefined)	0.75	-2	0	-3.6	-0.5	.	1.0	.	-5	-16
Cc1ccc(O)c(NC(=S)NC(=O)C(C)C)c1	0.66	5	-3	6.5	0.4	10.0	1.3	i	-8	-1
O=C(O)c1cncc(Br)c1	0.67	1	-7	5.2	0.4	-1.0	6.0	i	-11	-3
C=CCN1C(=O)CSC1=Nc1cccc(O)c1	0.66	.	.	.	-0.7	.	0.4	.	0	-6

Quoted at random: 4 entries already listed
SMILES	E coli growth	Ecoli rRNA inh	Ecoli rRNA inh OD600	Ecoli rRNA inh RFP	A1 inh	AF4-AF9 inh	UCH37 inh	FGF22 binding	T cruzi repl	Beta cell apopt
O=C(O)c1cncc(Br)c1	0.67	1	-7	5.2	0.4	-1.0	6.0	i	-11	-3
COc1ccc(NS(=O)(=O)c2ccc(NC(=O)C3CCCO3)cc2)cc1 (centres undefined)	0.75	-2	0	-3.6	-0.5	.	1.0	.	-5	-16
C=CCN1C(=O)CSC1=Nc1cccc(O)c1	0.66	.	.	.	-0.7	.	0.4	.	0	-6
O=C(NCc1cccnc1)/C(=C/c1ccco1)NC(=O)c1ccccc1	0.71	.	.	.	-1.0	.	4.8	.	-19	-7

Remaining list, next part:
SMILES	E coli growth	Ecoli rRNA inh	Ecoli rRNA inh OD600	Ecoli rRNA inh RFP	A1 inh	AF4-AF9 inh	UCH37 inh	FGF22 binding	T cruzi repl	Beta cell apopt
Cc1nc2ccccc2c(=O)n1/N=C/c1ccccc1Cl	.	0	7	-1.5	-1.4	2.7	.	i	-9	1
CCN(CC)S(=O)(=O)c1ccc(NC(=O)CO/N=C(\N)c2ccccc2)cc1	0.62	-6	-10	0.7	0.5	0.3	-0.4	.	1	.
CC(=O)c1ccc(N2CCN(S(=O)(=O)c3ccc4c5c3CC(=O)N5CC(C)S4)CC2)cc1 (centres undefined)	0.71	.	.	.	-1.9	.	4.1	.	3	5
COc1ccccc1Oc1ccc(S(=O)(=O)N2CCOCC2)cc1S(=O)(=O)N1CCOCC1	0.79	.	.	.	2.1	.	-4.3	.	1	-5
